Screens (PubChem)
CtBP-E1A inh: CtBP/E1A binding inhibition. AlphaScreen GST-E1A/His-CtBP binding, 1536-well; stronger effect = lower value; control for the full effect not named in the record. activity change, % (test concentration not listed). hit rate 0.49% among 340,000. AID 651724; in the data active means activity change below about -65%; inconclusive means about -30% to -65%; inactive means above about -30%; further: on the % scale 0 is the no-effect control and ±100 the full control effect; compound concentration not given in the record
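AlphaScreen with 125 nM GST-E1A and 125 nM His-CtBP (5X stocks) in Tris pH 8.0, 300 mM NaCl, BSA, Tween 20, TCEP. Compounds preincubated 2 h at 37 deg C, then glutathione donor/nickel acceptor beads added for 1 h at 37 deg C in dark.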
Six1-Eya2 blk: inhibitors of human Six1/Eya2 interaction. AlphaScreen GST-Six1/His-Eya2 binding, biochemical; stronger effect = lower value; control for the full effect not named in the record. activity change, % (concentration not given with the values). hit rate 0.56% among 360,000. Q15475+O00167; in the data active = activity change below about -65%; inconclusive = about -30% to -65%; inactive = above about -30%; further: on the % scale 0 is the no-effect control and ±100 the full control effect
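Six1/Eya2 binding was read as AlphaScreen signal after compounds were pinned into GST-Six1 plus His-tagged Eya2 (5X stock 250/500 nM) in pH 8.0 Tris/NaCl/TCEP buffer, beads added, then incubated 1 h, 37 C, dark.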
gsp ag: activates gsp, the McCune-Albright syndrome mutation | AID 624287 | gsp mutant cells, cAMP HTRF, 30 min; control for the full effect not named in the record | hit rate 0.13% among 340,000 | Potency, µM (doses to about 76.9 µM), without a hit: top-dose activation (cAMP increase), usual class: activators; active = well fitted activation curve with a large enough effect; inconclusive = small, poorly fitted or top-dose-only effect, or another doubt; inactive = no such curve, though single readings can be large or run the other way; cell line not stated here;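 further: phosphodiesterase inhibitor Ro 20-1724 added with compounds to block cAMP breakdown; potency means the concentration at half of the fitted maximal effect; nearly all actives have a fitted effect of over 60% in size; about a fifth of the inactives were tested at one dose only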
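Cells in DMEM/10% FBS with G418 were pretreated with compounds in DMSO plus […] (300 uM stock) for 30 min at 37C. cAMP was measured by HTRF (cAMP-d2 plus anti-cAMP antibody-K) after 30 min at room temperature.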
D2 potentiator: human D2 receptor positive allosteric modulation | P14416 | DiscoveRx D2 beta-arrestin cells, luminescence, 90 min; 100% = 57 uM dopamine signal | potentiation, % (no concentration beside the values) | hit rate 0.23% among 360,000 | AID 624464; active = potentiation of 50% or more; inconclusive = 30% to 50%; inactive = 30% or less;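 further: compound concentration not given in the record; tested on top of an EC20 dose of dopamine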
Target sequence (P14416 whole entry, looked up): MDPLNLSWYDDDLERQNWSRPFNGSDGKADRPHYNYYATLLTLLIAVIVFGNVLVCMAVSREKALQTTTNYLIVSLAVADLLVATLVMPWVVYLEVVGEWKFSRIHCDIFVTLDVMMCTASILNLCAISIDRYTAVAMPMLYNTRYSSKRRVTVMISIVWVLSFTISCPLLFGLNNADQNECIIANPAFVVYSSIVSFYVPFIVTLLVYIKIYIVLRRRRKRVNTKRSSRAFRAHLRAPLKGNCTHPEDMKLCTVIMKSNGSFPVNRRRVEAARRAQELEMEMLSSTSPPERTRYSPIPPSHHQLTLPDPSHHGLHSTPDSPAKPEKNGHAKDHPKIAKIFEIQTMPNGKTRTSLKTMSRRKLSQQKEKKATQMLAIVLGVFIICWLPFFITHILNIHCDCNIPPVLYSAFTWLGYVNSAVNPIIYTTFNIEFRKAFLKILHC
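D2 cells co-treated with compound plus 50 nM dopamine (EC20) for 90 min at 37 deg C to detect potentiation. Beta-arrestin recruitment was read as enzyme-fragment luminescence after 1 h at ambient temperature. Full response was set by 57 uM dopamine.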
D2 agonist: human D2 receptor agonism in beta-arrestin assay; P14416; DiscoveRx PathHunter D2 beta-arrestin, luminescence, 90 min; 100% = 57 uM dopamine signal; activation, % (no concentration beside the values); hit rate 0.084% among 360,000; AID 624465; in the data active = activation above about 40%; inconclusive = about 15% to 40%; inactive = below about 15%; further: compound concentration not given in the record; the text of the record calls up to 30% inactive
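DiscoveRx PathHunter D2 beta-arrestin cells (2,100/well) attached overnight, then compound-stimulated 90 min at 37 C in HBSS/10 mM HEPES/0.1% Tween-20 buffer; beta-galactosidase complementation read by luminescence after 1 h at ambient temperature. Dopamine 57 uM final (EC100) as control.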
gsp antag: antagonists of gsp mutant (McCune-Albright syndrome). gsp-mutant cells, cAMP HTRF, 30 min; control for the full effect not named in the record. Potency, µM (top dose mostly 76.9 µM), inactives show top-dose activity change, negative = inhibition, most hits filed as inhibitors. hit rate 0.4% among 340,000. AID 624288; active = falling curve of any shape with a large fitted effect; inconclusive = falling curve, mostly with a smaller effect; inactive = flat or rising curve; cell line not stated here;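 further: intracellular cAMP measured with PDE inhibitor Ro 20-1724 present during compound exposure; potency means the concentration at half of the fitted maximal effect; on the % scale 0 is the no-effect control and ±100 the full control effect; nearly all actives have a fitted effect of over 65% in size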
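HTRF cAMP measurement after 30 min RT detection following 30 min, 37C compound treatment alongside […] (added as 300 uM solution) in G418-selected cells seeded at 2000/well and grown 16–24 h.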
* = called active by the depositor; ? = inconclusive; · = no result given; [ ] = remark or other dose. Not all compounds are listed; the hit share may differ from the screen's.

SMILES	CtBP-E1A inh	Six1-Eya2 blk	gsp ag	D2 potentiator	D2 agonist	gsp antag
O=C(N/N=C/c1c(O)n(Cc2ccc(F)cc2)c(=O)[nH]c1=O)c1ccccc1	-81*	-74*	7%[15.4 µM]	-17	-6.8	6%
O=C1NC(=O)N(c2ccccc2)C(=O)/C1=C/c1ccoc1	0	-15	-19%	3	-0.1	1%
O=C1NC(c2cccnc2)Nc2sc3c(c21)CCCC3 (centres undefined)	-16	-15	5%	-9	-0.2	2%
CC12CCC(=O)C=C1CCC1C2CCC2(C)C(O)(C(=O)CO)CCC12O (centres undefined)	-2	-3	17%[15.4 µM]	-10	-3.3	-2%
Cc1ccc(N2CCNCC2C)cc1 (centres undefined)	0	11	-1%	-19	-5.5	-1%
C/C(=N\N1CCN(C)CC1)c1c(O)[nH]c(=O)[nH]c1=O	3	2	-20%	-4	0.2	8%
CC12CN3CN(C1)CC(c1ccccc1)(C3)C2=O	5	-2	31%	-9	-0.6	8%
CCOC(=O)c1ccc(N=C(c2ccccc2)c2c(O)n(C)c(=O)n(C)c2=O)cc1	1	4	11%[15.4 µM]	0	3.7	-7%
CC(=NCc1ccco1)c1c(O)n(Cc2ccccc2)c(=O)[nH]c1=O	-4	-1	-8%	-20	-6.1	13%
CCOCCCN=Cc1c(O)n(Cc2ccccc2)c(=O)[nH]c1=O	-4	5	-3%	7	-3.6	0%
O=C1NC(=S)NC(=O)C1=Cc1c(Cl)cccc1Cl	-12	-11	-36%[inhibitor]	-11	-1.6	1%
O=P(/C(=N/O)N1CCOCC1)(N1CCOCC1)N1CCOCC1	6	-6	-3%	-11	-3.9	6%
CC(C)NP(=O)(NC(C)C)OP(=O)(NC(C)C)NC(C)C	0	6	·	-5	-5.1	15%
CN1CCN(C(=O)Cc2nc3ccccc3[nH]2)CC1	-17	10	2%	-7	-3.0	?
O=C(CCNS(=O)(=O)c1ccccc1)Nc1ccc(Cl)cc1C(=O)c1ccccc1	2	-7	-1%[15.4 µM]	-3	-7.2	-3%
CCCCC(CC)COCCCN=Cc1c(O)[nH]c(=S)[nH]c1=O (centres undefined)	3	-2	-2%	-10	-3.8	9%
O=C(O)COc1ccccc1/C=C1\C(=O)NC(=O)N(CCC2=CCCCC2)C1=O	11	2	-4%	-7	-2.7	7%
Cc1sc2ncn(CC(=O)N3CCC4(CC3)OCCO4)c(=O)c2c1C	0	-3	3%	1	-1.7	0%
O=C(NC12CC3CC(CC(C3)C1)C2)OC1CN2CCC1CC2 (centres undefined)	8	4	23%[15.4 µM]	-7	-2.2	-2%
CCCCCCn1c(=O)c(C(=O)Nc2cccc(C)n2)c(O)c2ccccc21	·	1	-42%[inhibitor]	-12	-5.8	2%
CN1C(=O)N(C)C(=O)C(CCc2ccncc2)(CCc2ccncc2)C1=O	0	5	-35%[inhibitor]	-7	1.4	10%
C[C@@H]1CNC(=O)c2c(C(=O)Nc3ccc(CNC(=O)OC(C)(C)C)cc3)ncn21	?	-23	?	2	-3.3	·
C[n+]1c2ccccc2nc2ccc(NCCO)cc21	-70*	-73*	?	-11	-4.2	?
O=C(CN1CCCCC1)c1ccccc1Cl	-1	7	17%	-51	-17	16%
CC12CCC(=O)C=C1CCC1C2C(O)CC2(C)C(O)CCC12 (centres undefined)	6	3	-7%	-6	1.8	-5%

Brought forward from above: three entries; new compounds follow.
SMILES	CtBP-E1A inh	Six1-Eya2 blk	gsp ag	D2 potentiator	D2 agonist	gsp antag
C[n+]1c2ccccc2nc2ccc(NCCO)cc21	-70*	-73*	?	-11	-4.2	?
O=C(CN1CCCCC1)c1ccccc1Cl	-1	7	17%	-51	-17	16%
CC12CCC(=O)C=C1CCC1C2C(O)CC2(C)C(O)CCC12 (centres undefined)	6	3	-7%	-6	1.8	-5%
CC[C@H]1CN2CCc3cc(OC)c(OC)cc3[C@@H]2C[C@@H]1C[C@H]1NCCc2cc(OC)c(OC)cc21	-1	-6	·	-26	-5.0	-7%
CCc1cccc(CC)c1N(COC)C(=O)CCl	-2	2	-6%	-15	-3.0	-1%
O=[N+]([O-])c1cccnc1N1CCCNCC1	0	-11	-7%	-25	0.5	11%
N#CCP(=S)(c1ccccc1)c1ccccc1	1	0	-2%	-9	-0.4	-7%
CN1CCC(N(C)c2ncnc3ccc(Br)cc23)CC1	9	6	32µM*	-32	-1.4	0%
COc1cccc(CCNCc2ccc(SC)cc2)c1	2	-17	-18%[15.4 µM]	-21	-5.2	10%
COc1cccc(NP(=O)(Oc2ccccc2)Oc2ccccc2)c1	-6	0	-10%	-16	-2.4	-4%
Cc1csc(=N)n1Cc1ccccc1	2	8	?	-7	0.0	3%
Cc1ccc2c(c1)C1CN(C)CCC1N2C(=O)Cc1cccs1 (centres undefined)	2	-1	-3%	-20	0.0	7%
Cc1ccc2c(c1)C1CN(C)CCC1N2C(=O)c1cn(-c2ccccc2)nc1-c1ccccc1 (centres undefined)	-5	-14	21%	-11	-1.2	6%
CN1Cc2ccccc2-n2nncc2C1	0	6	·	-4	0.7	7%
Cc1ccc(CN2C(=O)CN=C(c3ccccc3)c3ccccc32)cc1	-1	-4	-54%	-6	-1.1	-19%
O=C(c1cc(C(=O)NCc2ccccc2)c(=O)n(Cc2ccccc2)c1)c1cc(Br)ccc1O	-16	-7	5%	-11	·	-10%
COC(=O)C1=C(c2ccccc2OCc2ccccc2)C[C@@H]2CC[C@H]1N2C(=O)NCc1ccc(F)cc1	-7	-2	10%	-10	-6.6	-18%
COC(=O)C1C2c3ccccc3C(c3ccccc32)C1(C)C(=O)OC (centres undefined)	-5	-4	1%	-4	1.0	2%
Cc1cc(C=C2C(=O)NC(=O)NC2=O)c(C)n1-c1cccnc1	-2	-4	13%[15.4 µM]	-4	-1.5	-7%
Cc1nn(C2CCOC(C)(C)C2)c2c1C(c1ccc3c(c1)OCO3)SCC(=O)N2 (centres undefined)	2	6	17%	-8	-2.5	-14%
O=C(C1CCCCC1)N1Cc2ccccc2-n2nncc2C1	-7	6	-82%[inhibitor]	1	-5.7	·
CCN1CCN(c2ccc([N+](=O)[O-])cc2C#N)CC1	0	6	30%	-12	0.2	6%
O=C(c1ccc2c3c(cccc13)CC2)C1CCCN(Cc2ncc[nH]2)C1 (centres undefined)	-28	-17	7%[15.4 µM]	-26	-1.9	·
CC(C)C(=O)N1CCN(CCN=Cc2c(O)n(C)c(=O)n(C)c2=O)CC1	0	2	23%	-8	-0.7	11%
COc1cc(C(c2c(O)c3ccccc3oc2=O)c2c(C)n(C)n(-c3ccccc3)c2=O)ccc1O (centres undefined)	0	-4	-2%	4	1.2	19%
C[C@@H]1CN([C@H](C)CO)C(=O)CCCn2nncc2CO[C@H]1CN(C)C(=O)Oc1cccc2ccccc12	7	-3	-40%	7	0.9	·
CCOc1ccc2oc(C(=O)NN3C(C)CCCC3C)c(C)c2c1 (centres undefined)	-13	2	-5%[15.4 µM]	-23	4.6	-6%
CCOC(=O)c1c(N)n(Cc2ccco2)c2nc3ccccc3nc12	-11	-10	1%	-10	-7.6	20%

Looked up by structure from the entries so far:
SMILES	CtBP-E1A inh	Six1-Eya2 blk	gsp ag	D2 potentiator	D2 agonist	gsp antag
Cc1ccc2c(c1)C1CN(C)CCC1N2C(=O)c1cn(-c2ccccc2)nc1-c1ccccc1 (centres undefined)	-5	-14	21%	-11	-1.2	6%
COC(=O)C1=C(c2ccccc2OCc2ccccc2)C[C@@H]2CC[C@H]1N2C(=O)NCc1ccc(F)cc1	-7	-2	10%	-10	-6.6	-18%

(continued)
SMILES	CtBP-E1A inh	Six1-Eya2 blk	gsp ag	D2 potentiator	D2 agonist	gsp antag
CCn1c(=O)cc(SCC(=O)N2CCC3(CC2)OCCO3)c2ccccc21	4	-1	?	-6	-2.6	?
O=C1NC(=O)C(CCc2ccncc2)(CCc2ccncc2)C(=O)N1Cc1ccccc1	·	6	1%[15.4 µM]	-5	3.0	-9%
O=C(O)CCn1cc(C=C2C(=O)NC(=S)NC2=O)c(-c2ccccc2)n1	3	3	14%[15.4 µM]	-2	-2.7	1%
C[C@]12CC[C@@H](O)C[C@@H]1CC[C@@H]1[C@@H]2CC[C@]2(C)C(=O)[C@H](O)C[C@@H]12	2	0	-1%	-10	0.0	·
CC12CCC3C(CCC4CC(=O)OCC43C)C1CCC2O (centres undefined)	0	0	-10%[15.4 µM]	-15	3.7	-30%
COC12C(COC(N)=O)C3=C(C(=O)C(C)=C(N)C3=O)N1CC1C2N1C (centres undefined)	-1	-7	·	5	8.8	?
O=C1NCN(c2ccccc2)C12CCN(C(c1ccnc3ccccc13)c1nnnn1C1CCCC1)CC2 (centres undefined)	-1	-6	·	-4	-1.8	·
CC(C)(C)c1ccc(CN2C(=O)CN=C(c3ccccc3)c3ccccc32)cc1	-7	-4	-27%	-9	2.0	?
COc1ccc(C(C)=O)cc1CC(C(=O)c1ccc(Br)cc1)N(C)C (centres undefined)	-19	-7	-5%	-34	-7.6	-4%
COC(=O)C1=C(c2ccc(Cl)c(C(F)(F)F)c2)C[C@@H]2CC[C@H]1N2C(=O)NCC1CC1	2	0	-2%	-10	-0.5	-9%
Cc1ccc2nc(-c3ccncc3)cc(C(=O)N3CCC4(CC3)OCCO4)c2c1	1	16	-1%	0	0.5	-6%
COc1ccc([N+](=O)[O-])cc1CSc1ccccn1	·	-3	-7%	-9	-2.0	1%
O=C(c1cc2cc(F)ccc2[nH]1)N1CCC2(CC1)OCCO2	·	2	1%	-7	3.9	6%
CCc1ccc(OCC(=O)N2CCN(Cc3ccc4c(c3)OCO4)CC2)cc1	-4	-2	-3%[15.4 µM]	-10	-1.0	-4%
O=C(CCNC(=O)N1C[C@H]2C[C@@H](C1)c1cccc(=O)n1C2)Nc1cccc(Cl)c1	7	3	·	-27	-5.5	7%
CCCNC(=O)c1c(N)n(Cc2ccc3c(c2)OCO3)c2nc3ccccc3nc12	0	2	22%	4	1.4	-4%
C=CCN1C(=O)NC(=O)/C(=C/c2ccc(OC)c(COc3ccc(NC(C)=O)cc3)c2)C1=O	-10	-5	6%	-11	-4.7	5%
CCCC/C(=N\O)c1c[nH]c2ccccc12	-8	-3	-2%	1	-1.9	0%
CCOc1ccccc1-n1c(O)c(C=NCCCn2ccnc2)c(=O)[nH]c1=O	1	-24	5%[15.4 µM]	-6	-2.4	2%
COc1ccccc1-n1c(Cc2ccccc2)nc2ccccc2c1=O	5	4	11%[15.4 µM]	-5	-5.4	-2%
S=P(N1CCCCCC1)(N1CC1)N1CC1	5	-6	6%[15.4 µM]	4	-1.7	12%
CCOc1ccc(Cl)cc1CNCCc1ccc(F)cc1	9	6	-10%	-23	-3.4	11%
COc1ccc(CNC(=O)C2CCN(c3nc(OC)nc(OC)n3)CC2)cc1	10	-1	?	-13	-1.3	-2%
CCOC(=O)C1(CCc2ccccc2)CCN(C(C)CSC)CC1 (centres undefined)	-2	-10	5%	-9	-0.1	1%
